# Assay outcomes as filed in PubChem BioAssay.
# PABP FP inh = PABP-poly(A) binding inhibition. PABP-poly(A) RNA binding, fluorescence polarization. 290,000 tested, 1% active. P11940. inhibition, % at 35 µM;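 active = 50% or more with normal probe brightness, or confirmed in later tests; inconclusive = above 50% with abnormal brightness, or retests that disagree; inactive = below 50% or failed in later tests; about a fifth of its hits are not listed in these tables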;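 note: calls also rest on retests at 20 µM and on dose response follow-up; controls were probe without protein and protein plus probe with vehicle; some compounds called inactive have numbers as strong as hits; many hits fall short of the cut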
# eIF4H inh = inhibitors of RNA binding by human eIF4H; eIF4H fluorescence polarization binding assay; inhibition, % at 35 µM; 290,000 tested, 0.94% active;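 active = 50% or more with normal probe brightness, or confirmed in later tests; inconclusive = above 50% with abnormal brightness, or retests that disagree; inactive = below 50% or failed in later tests; about a fifth of its hits are not listed in these tables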;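 note: calls also rest on retests at 20 µM and on dose response follow-up; 0% = protein and probe with vehicle and 100% = probe without protein; strong numbers were not always called active; many hits fall short of the cut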
# CSC inhib = cancer stem cell inhibition. cancer stem cell-like cells viability, luminescence. 300,000 tested, 1.1% active. inhibition, % at 7.5 µM;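 active = mean at 75% or more and at least half the replicates too; inconclusive = mean and replicates disagree; tested in HMLE shEcad cells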;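 note: 0% = median of negative and 100% = median of positive control wells; the first replicate is given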
# UUG fidelity = alters start codon recognition fidelity in yeast; AID 602363; activity score, % at 18.7 µM; 350,000 tested, 0.13% active; S. cerevisiae UUG-firefly luciferase reporter, luminescence/redox ratio;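 active = replicate mean at a twofold rise or more, about +100% in these data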;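 note: firefly luciferase made from a UUG start codon reports start codon fidelity; reporter light over untreated wells divided by growth signal over untreated wells; some hits fall short of that in this replicate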
# HIV Env fusion = HIV envelope-mediated fusion inhibition; AID 651610; inhibition, % at 12.3 µM; HeLa-JRFL Env/CEM21 cell fusion, luciferase; 360,000 tested, 1.1% active;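 active = mean replicate inhibition score of at least 50 and every replicate individually at or above 50; inconclusive = only one of the two criteria met; inactive = mean below 50 and not all replicates reaching 50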;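 note: 0% = plate neutral controls and 100% = maraviroc near 300 nM; one replicate is shown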
# Rce1 inh = inhibitors of yeast Ras-converting enzyme | Q03530 | yeast membranes, quenched prenylated peptide cleavage fluorescence | calls only | 290,000 tested, 0.27% active;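 active = fall in fluorescence gain of 50% or more versus controls, with final raw signal at or below 3038400; inconclusive = same 50% fall but final raw signal above 3038400; inactive = fall in fluorescence gain under 50%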;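 note: plate controls were neutral control wells for no effect and wells lacking membranes for full effect; tested at 10 µM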
# Target sequence (Q03530 whole entry, looked up): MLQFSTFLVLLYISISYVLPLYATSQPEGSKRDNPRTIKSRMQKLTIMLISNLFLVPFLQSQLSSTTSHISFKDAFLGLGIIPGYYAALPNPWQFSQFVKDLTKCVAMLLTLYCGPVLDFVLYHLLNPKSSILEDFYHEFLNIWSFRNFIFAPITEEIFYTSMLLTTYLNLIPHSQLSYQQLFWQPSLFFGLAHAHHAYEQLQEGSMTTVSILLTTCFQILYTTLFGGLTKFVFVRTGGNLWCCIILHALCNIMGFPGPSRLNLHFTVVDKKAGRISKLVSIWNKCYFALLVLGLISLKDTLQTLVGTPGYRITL
# MT1-MMP act inh = blocks activation of human MT1-MMP; GFP/RFP ratio change, % at 20 µM; HT1080 RFP-PRO-GFP cells, GFP/RFP ratio fluorescence, overnight; percent of plate control window, DMSO zero; 360,000 tested, 0.061% active; P50281;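 active = GFP/RFP ratio change of at least 30% with cell ATP level not reduced by more than half and red fluorescence within 50% of control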; note: strong numbers were not always called active
#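 Assay system: RFP-PRO-GFP reporter HT1080 cells; read-out basis: GFP/RFP fluorescence ratio; benchmarks: DMSO wells and RFP-L50D-GFP cells; doses: 20 µM single dose, 1% DMSO; schedule: overnight cell settling, then overnight compound exposure, 37 °C, 5% CO2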
# MT1-MMP act inh RFP = recorded beside MT1-MMP act inh, whose call it bears; RFP signal change, %; measured here: RFP expression control read;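 0 = vehicle wells; hits needed this value within 50% of zero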
# * hit, by the source's call; i = inactive; ? = inconclusive; . = not tested or not shown; + = active, no number. Compounds were not picked by outcome. About 2.9% of those tested had a hit in this group.
1	COC(=O)c1cccn(CC(=O)c2ccc(Cl)cc2Cl)c1=O
2	Cc1oc(C)c(C(N)=O)c1C(N)=O
3	Cc1ccn2cc(CCNC(=O)c3ccc(Br)o3)nc2c1
4	CN(C)CCCNC(=S)NCCNc1nc2cc3c(cc2cc1C#N)OCO3
5	O=C(CN1CCN(Cc2ccc(F)cc2)CC1)Nc1ccccc1F

assay / entry,1,2,3,4,5
PABP FP inh,5.5,-5.5,2.1,24.7,5.1
eIF4H inh,-6.7,-1.0,-2.5,16.7,-6.4
CSC inhib,.,-4.8,-9.1,-7.2,-2.2
UUG fidelity,.,-11.0,-9.7,.,-13.9
HIV Env fusion,0.8,.,-68.8,-2.4,7.8
Rce1 inh,i,i,i,i,i
MT1-MMP act inh,1.8,-3.2,1.5,-4.3,-2.6
MT1-MMP act inh RFP,2.0,-2.4,7.1,0.1,-1.3

6	Cc1cc(C)nc(N/N=C/c2cc(Br)ccc2O)n1
7	O=C(c1ccc([N+](=O)[O-])c(CS(=O)(=O)c2ccc(Cl)cc2)c1)N1CCCC1
8	C(=C\c1ccccc1)/CN1CCN(Cc2ccc3c(c2)OCCO3)CC1
9	CCCCC(=O)Nc1ccc2c(c1)OCCO2
10	CC(C)(C)NC(=O)Nc1nnc(SCC(=O)NC2CCCCC2)s1

assay / entry,6,7,8,9,10
PABP FP inh,2.5,28.9,21.7,-6.8,.
eIF4H inh,12.0,2.6,6.2,-11.0,.
CSC inhib,40.5,-7.4,.,-5.3,14.8
UUG fidelity,-23.3,7.7,.,.,.
HIV Env fusion,-3.4,23.1,.,-114.6,-8.9
Rce1 inh,i,i,i,i,i
MT1-MMP act inh,.,-0.2,.,1.3,2.2
MT1-MMP act inh RFP,.,-0.5,.,-1.0,-3.2

# Record cards, from the list above. Order of values: PABP FP inh, eIF4H inh, CSC inhib, UUG fidelity, HIV Env fusion, Rce1 inh, MT1-MMP act inh, MT1-MMP act inh RFP
# O=C(c1ccc([N+](=O)[O-])c(CS(=O)(=O)c2ccc(Cl)cc2)c1)N1CCCC1 as listed: 28.9, 2.6, -7.4, 7.7, 23.1, i, -0.2, -0.5
# Cc1ccn2cc(CCNC(=O)c3ccc(Br)o3)nc2c1 as listed: 2.1, -2.5, -9.1, -9.7, -68.8, i, 1.5, 7.1
# O=C(CN1CCN(Cc2ccc(F)cc2)CC1)Nc1ccccc1F as listed: 5.1, -6.4, -2.2, -13.9, 7.8, i, -2.6, -1.3

# Later entries.
11	O=c1[nH]c2ccccc2cc1CN(Cc1ccco1)S(=O)(=O)c1ccccc1
12	O=C(NCCCNc1ccnc2cc(Cl)ccc12)c1ccccc1F
13	OC(COc1cccc2ccccc12)CN1CCN(c2ccccc2)CC1 (stereo unspecified)
14	COc1ccccc1CNC(=O)C1CC2Cn3c(nc4ccccc43)C2N1C (stereo unspecified)
15	CC(=O)N1CCN(CC(=O)Nc2c(Cl)cccc2Cl)CC1

assay / entry,11,12,13,14,15
PABP FP inh,8.1,-0.2,-0.8,-11.2,-2.4
eIF4H inh,0.6,-12.5,3.9,-1.8,6.5
CSC inhib,.,3.5,8.2,0.6,-11.9
UUG fidelity,-30.5,-4.3,-13.8,3.3,-10.7
HIV Env fusion,4.3,13.1,-20.6,-3.6,-9.4
Rce1 inh,i,i,i,i,i
MT1-MMP act inh,-2.8,4.4,2.5,1.5,1.0
MT1-MMP act inh RFP,-8.8,-1.7,-0.1,0.1,2.4

# 6 compounds from above, sorted by the number in UUG fidelity, descending.
entry | smiles | UUG fidelity
12 | O=C(NCCCNc1ccnc2cc(Cl)ccc12)c1ccccc1F | -4.3
3 | Cc1ccn2cc(CCNC(=O)c3ccc(Br)o3)nc2c1 | -9.7
15 | CC(=O)N1CCN(CC(=O)Nc2c(Cl)cccc2Cl)CC1 | -10.7
2 | Cc1oc(C)c(C(N)=O)c1C(N)=O | -11.0
6 | Cc1cc(C)nc(N/N=C/c2cc(Br)ccc2O)n1 | -23.3
11 | O=c1[nH]c2ccccc2cc1CN(Cc1ccco1)S(=O)(=O)c1ccccc1 | -30.5

# The listing continues.
16	COc1ccc(C(=O)Nc2ccc(OC)c([N+](=O)[O-])c2)cc1Br
17	CC1(C)CC(=O)c2cc(O)ccc2O1
18	Cc1cc(=O)oc(C)c1C(=O)NCCCN1CCN(c2ccc(F)cc2)CC1
19	COc1ccc2c(=O)c3c(=O)n(CCc4ccccc4)c(C(C)C)nc3oc2c1
20	CC(=O)c1c(C)oc2ccc(NS(=O)(=O)c3ccc(C)cc3)cc12

assay / entry,16,17,18,19,20
PABP FP inh,-4.9,-2.5,8.5,-8.4,12.0
eIF4H inh,-10.0,1.1,0.5,-2.4,6.8
CSC inhib,-4.9,-7.8,-1.5,.,0.0
UUG fidelity,1.1,-22.4,-3.2,.,-16.6
HIV Env fusion,-3.8,.,4.4,-13.3,2.2
Rce1 inh,i,i,i,i,i
MT1-MMP act inh,2.8,1.2,0.6,1.2,10.4
MT1-MMP act inh RFP,-1.2,0.5,1.6,-3.5,-11.9

21	Cn1c2ccccc2c(=O)c2c(=O)n(Cc3ccco3)c(-c3ccc(Cl)cc3Cl)nc21
22	CCOc1ccc(NC(=O)c2cc3cc4ccc(C)cc4nc3o2)cc1
23	Cc1ccccc1NCCNc1ccccc1C
24	O=C(Nc1nc(-c2ccccc2)cs1)c1ccco1
25	O=C(O)CSc1nnc(COc2ccc(Br)cc2)n1-c1ccccc1

assay / entry,21,22,23,24,25
PABP FP inh,16.0,2.0,-5.6,-1.4,2.1
eIF4H inh,10.0,-2.9,-8.1,2.9,6.6
CSC inhib,-9.7,-4.8,34.8,1.1,1.3
UUG fidelity,.,.,.,-6.0,-6.3
HIV Env fusion,.,.,.,-32.5,-6.8
Rce1 inh,i,i,i,i,i
MT1-MMP act inh,.,.,2.0,6.9,-1.0
MT1-MMP act inh RFP,.,.,0.1,0.7,1.1

26	Oc1c(C=Nc2ccccc2)sc2ccccc12
27	CCN(CC)CCNC(=O)c1c(C)oc2cc(Br)c(OC)cc12
28	Cc1ccc(S(=O)(=O)NC(C)C(=O)NC(C)c2cccs2)cc1 (stereo unspecified)
29	O=C(c1ccc(Cl)cc1)N1CCN=C1c1ccccc1
30	Nc1nnnn1/N=C/c1cccc(OCc2ccccc2Cl)c1

assay / entry,26,27,28,29,30
PABP FP inh,?,-2.9,-4.3,-1.5,1.6
eIF4H inh,?,-2.5,-17.7,6.0,4.5
CSC inhib,-8.5,-8.1,4.2,2.4,10.3
UUG fidelity,.,-6.1,.,.,-31.4
HIV Env fusion,-1.3,-106.3,-0.1,.,-137.1
Rce1 inh,i,.,.,i,+
MT1-MMP act inh,-3.3,4.2,2.9,1.8,-1.0
MT1-MMP act inh RFP,5.2,-1.0,3.0,1.2,-7.3

# Entries listed above shown as hits in Rce1 inh.
no.	structure	UUG fidelity	HIV Env fusion	Rce1 inh	MT1-MMP act inh	MT1-MMP act inh RFP
30	Nc1nnnn1/N=C/c1cccc(OCc2ccccc2Cl)c1	-31.4	-137.1	+	-1.0	-7.3

# The list goes on.
31	COc1ccc(CCN(C)C(=O)C2CCN(Cc3ccc(C)cc3)CC2)cc1OC
32	CCOC(=O)N1CCN(C(=O)Cn2ncn3nc(-c4cccs4)cc3c2=O)CC1
33	C#CCOCCOCCOCCNc1nc(N2CCN(C(=O)[C@H]([C@@H](C)O)n3cc(CCCCN)nn3)CC2)nc(N2CCN(C(=O)[C@H]([C@@H](C)CC)n3cc(CCCCN)nn3)CC2)n1
34	Cc1ccc(C2(C)NC(=O)N(CC(=O)Nc3ccc4c(c3)CCC4)C2=O)cc1 (stereo unspecified)
35	COCCn1nnnc1CN(CCc1ccc(OC)c(OC)c1)Cc1cc2ccc(C)cc2[nH]c1=O
36	CS(=O)(=O)N(CC(N)=O)c1ccc(F)c(Cl)c1

assay / entry,31,32,33,34,35,36
PABP FP inh,5.5,10.2,.,.,8.5,-5.4
eIF4H inh,-1.7,-1.9,.,.,8.0,0.8
CSC inhib,-0.5,-7.0,-9.4,.,0.9,-0.4
UUG fidelity,.,-9.2,17.5,-12.5,.,-18.8
HIV Env fusion,4.2,.,2.3,-8.2,.,.
Rce1 inh,i,i,.,.,i,i
MT1-MMP act inh,-4.4,-0.4,5.2,5.0,-0.9,1.0
MT1-MMP act inh RFP,-1.2,0.7,4.2,3.6,0.6,4.7
